Menin-MLL FL inh – qHTS Assay for Inhibitors Targeting the Menin-MLL Interaction in MLL Related Leukemias: Competition With Fluorescein Labeled MLL-derived Peptide; Fluorescence polarization, fluorescein-MLL peptide displacement from menin; FP activity change, % at 61.4 µM; 290,000 tested, under 10 active; inconclusive = falling polarisation curve, or a change in total fluorescence; inactive = total fluorescence flat and polarisation flat or rising; no compound was filed as active; the % refers to the polarisation; negative = inhibition;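 note: % of control where 0% means no effect; inhibitors lower the polarisation; unlabelled MLL peptide was the positive control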
Sfp PPTase inh – qHTS Assay for Inhibitors of Bacillus subtilis Sfp phosphopantetheinyl transferase (PPTase). actives 3.5% (n = 310,000). Biochemical Sfp PPTase activity, qHTS. Potency, µM, for the others: max response, negative = inhibition, usual class: inhibitors. 4'-phosphopantetheinyl transferase ffp (Bacillus subtilis), Q9F4F7. AID 1490, 2009; active = well fitted inhibition curve with a large enough effect; inconclusive = small, poorly fitted or top-dose-only effect, or another doubt; inactive = no such curve, though single readings can be large or run the other way;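 note: the enzyme is Sfp with the accession as filed and its product quenches rhodamine fluorescence; potency is the fitted concentration of half-maximal effect; 0% = enzyme reaction without inhibitor and -100% = no enzyme wells; top concentration of the series not given in the record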
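Sfp 15 nM + cpd, 15 min RT; start w/ rhodamine-CoA 5 uM, BHQ-2-YbbR 12.5 uM (final); 50 mM Hepes pH 7.6, 10 mM MgCl2, 0.01% NP-40, 0.01% BSA; read 525/598 nm at 0 and 30 min.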
ClpP mod – qHTS Assay for Activators of ClpP; ATP-dependent Clp protease proteolytic subunit (Bacillus subtilis (strain 168)), P80244; actives 1.9% (n = 340,000); Potency, µM (titrated, usually from 57.5 µM), for the others: at the top dose activity change, negative = active; purified B. subtilis ClpP, FRET peptide cleavage, 20 min; active = well fitted falling curve with a large enough effect; inconclusive = small, poorly fitted or top-dose-only effect; inactive = no such curve, though single readings can be large or run the other way; note: potency is the fitted concentration of half-maximal effect; the source files actives as falling curves though it sought activators and does not explain the sign; nearly all actives have a fitted effect of over 65% in size; many hits overshoot -100%
Target sequence (P80244 whole entry, looked up): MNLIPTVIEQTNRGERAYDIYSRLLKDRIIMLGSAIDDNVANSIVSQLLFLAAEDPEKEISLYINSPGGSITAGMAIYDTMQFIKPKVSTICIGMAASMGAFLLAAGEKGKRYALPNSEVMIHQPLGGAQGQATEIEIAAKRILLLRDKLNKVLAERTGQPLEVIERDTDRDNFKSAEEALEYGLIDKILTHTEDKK
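ClpP 10 microg/mL final, pH 8 Tris/KCl buffer with BSA, glycerol, Tween-20; compound pinned in; FRET-FV substrate; RT 20 min; Ex320/Em430; ΔFRET vs ADEP 5.8 microM, DMSO, no enzyme.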
gsp agonist – qHTS for Agonist of gsp, the Etiologic Mutation Responsible for Fibrous Dysplasia/McCune-Albright Syndrome: qHTS; gsp mutant cells, cAMP HTRF, 30 min; control for the full effect not named in the record; actives 0.13% (n = 340,000); Potency, µM (highest dose often 76.9 µM), without a hit: top-dose activation (cAMP increase), actives largely listed as activators; AID 624287, 2012; active = well fitted activation curve with a large enough effect; inconclusive = small, poorly fitted or top-dose-only effect, or another doubt; inactive = no such curve, though single readings can be large or run the other way; cell line not stated here;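 note: phosphodiesterase inhibitor Ro 20-1724 added with compounds to block cAMP breakdown; potency is the fitted concentration of half-maximal effect; nearly all actives have a fitted effect of over 60% in size; about a fifth of the inactives were tested at one dose only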
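Cells in DMEM/10% FBS with G418 were pretreated with compounds in DMSO plus […] (300 uM stock) for 30 min at 37C. cAMP was measured by HTRF (cAMP-d2 plus anti-cAMP antibody-K) after 30 min at room temperature.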
CtBP-E1A inh – qHTS Assay for Inhibitors of the CtBP/E1A Interaction; activity change, % (test concentration not listed); CtBP / adenovirus E1A interaction (AlphaScreen); AlphaScreen GST-E1A/His-CtBP binding, 1536-well; active compounds read low; control for the full effect not named in the record; AID 651724, 2012; actives 0.49% (n = 340,000); in the data active means activity change below about -65%; inconclusive means about -30% to -65%; inactive means above about -30%; note: % is set by controls: 0 for no effect and ±100 for the full control effect
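Protein mix (5X: 125 nM each GST-E1A, His-CtBP) was incubated with pinned compound 2 h at 37 deg C in dark, in 50 mM Tris pH 8.0 buffer with 300 mM NaCl. Glutathione donor and nickel acceptor beads followed; AlphaScreen signal read after 1 h.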
gsp antagonist – qHTS for Antagonists of gsp, the Etiologic Mutation Responsible for Fibrous Dysplasia/McCune-Albright Syndrome: qHTS. Potency, µM (top dose mostly 76.9 µM), without a hit: top-dose activity change, negative = inhibition, most hits filed as inhibitors. actives 0.4% (n = 340,000). gsp-mutant cells, cAMP HTRF, 30 min; control for the full effect not named in the record. AID 624288, 2012; active = falling curve of any shape with a large fitted effect; inconclusive = falling curve, mostly with a smaller effect; inactive = flat or rising curve; cell line not stated here;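 note: intracellular cAMP measured with PDE inhibitor Ro 20-1724 present during compound exposure; potency is the fitted concentration of half-maximal effect; % is set by controls: 0 for no effect and ±100 for the full control effect; nearly all actives have a fitted effect of over 65% in size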
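HTRF cAMP read-out (cAMP-d2 plus anti-cAMP antibody-K in lysis buffer, 30 min RT). Before lysis, cells are exposed to compounds with […] for 30 min at 37C in DPBS containing Ca/Mg, BSA and Tween 20.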
TRPV1 potentiator – HTS Assay for Compounds that Act as Potentiators of the Vanilloid Receptor 1; actives 0.02% (n = 320,000); potentiation, % at 8.33 µM; AID 540277, 2011; Transient receptor potential cation channel subfamily V member 1 (Homo sapiens), Q8NER1; TRPV1-expressing cells, Fluo-8 calcium influx, capsaicin EC20 potentiation; host cell line not named in the record; control for the full effect not named in the record; active means potentiation above 80%; inconclusive means 30% to 80%; inactive means below 30%; note: 0% is about no effect
Target sequence (Q8NER1 whole entry, looked up): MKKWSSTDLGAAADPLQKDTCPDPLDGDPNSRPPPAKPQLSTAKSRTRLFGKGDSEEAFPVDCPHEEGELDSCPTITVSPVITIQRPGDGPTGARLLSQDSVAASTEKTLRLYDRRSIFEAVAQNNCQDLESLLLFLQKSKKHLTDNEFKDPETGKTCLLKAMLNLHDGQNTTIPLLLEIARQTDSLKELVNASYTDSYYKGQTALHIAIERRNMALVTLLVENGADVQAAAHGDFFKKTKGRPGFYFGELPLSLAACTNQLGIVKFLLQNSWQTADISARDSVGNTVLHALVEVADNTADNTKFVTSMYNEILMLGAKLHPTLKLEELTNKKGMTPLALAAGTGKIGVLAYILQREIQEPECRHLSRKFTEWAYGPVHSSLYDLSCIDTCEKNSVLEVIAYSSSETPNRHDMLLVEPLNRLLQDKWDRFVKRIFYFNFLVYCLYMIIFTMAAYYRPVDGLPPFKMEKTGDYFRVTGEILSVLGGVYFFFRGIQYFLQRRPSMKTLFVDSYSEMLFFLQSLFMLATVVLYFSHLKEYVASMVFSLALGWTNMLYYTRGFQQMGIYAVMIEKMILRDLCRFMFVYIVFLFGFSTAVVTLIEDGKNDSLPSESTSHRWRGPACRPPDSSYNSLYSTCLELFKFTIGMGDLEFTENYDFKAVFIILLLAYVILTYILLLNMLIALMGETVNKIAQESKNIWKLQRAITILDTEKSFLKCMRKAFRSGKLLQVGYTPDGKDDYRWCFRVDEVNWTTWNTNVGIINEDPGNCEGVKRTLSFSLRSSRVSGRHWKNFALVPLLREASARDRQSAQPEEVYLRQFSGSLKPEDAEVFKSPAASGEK
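TRPV1-expressing cells were cultured overnight at 35.5C and loaded with Fluo-8 calcium dye for 40 to 90 min at room temperature. After a 10 s baseline, compound was added and calcium influx was read kinetically for 3 min (ex 480/em 520 nm).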
* hit, by the source's call; ? = inconclusive; . = no result given; [ ] = another dose, or the depositor's remark.

SMILES	Menin-MLL FL inh	Sfp PPTase inh	ClpP mod	gsp agonist	CtBP-E1A inh	gsp antagonist	TRPV1 potentiator
NC(=S)NN=C1c2cc(Cl)ccc2-c2c1cc(Cl)cc2[N+](=O)[O-]	.	.	-9.2%	-2%	-17	-4%	.
S=c1[nH]c2ccccc2n1CCc1ccncc1	.	.	0.6%	-33%	6	-7%	.
COc1ccc2cc(/C=N/NC(=O)c3c(Cl)cnn3C)c(Cl)nc2c1	-6.7	-3%	-23%	21%	-1	6%	-5
CCN(CC)CCNC1=NCCn2c1cc1cc(OC)ccc12	-3.6	15%	?	22%	-2	16%	26
O=C(NCC1COc2ccccc2O1)c1c[nH]c2ccc(S(=O)(=O)N3CCOCC3)cc2c1=O (stereo not given)	3.2	16%	?	1%	-3	-21%	-7
Cc1ccnc(SCc2cn3c(C)cccc3n2)n1	-6.1	?	.	9%[15.4 µM]	11	5%	?
COc1ccc2c(c1)CCC(C)N2S(=O)(=O)c1ccc(C2CNC(=O)C2)cc1 (stereo not given)	-1.0	16%	-0.9%	4%	-7	-7%	10
COc1ccc(-c2csc3ncn(-c4ccc(C)cc4)c(=O)c23)cc1OC	3.8	5%	-28%	0%[15.4 µM]	6	-10%	-3
O=C(Cn1nnc(-c2ccccc2)n1)N/N=C/c1ccc(-c2ccc(Cl)cc2)o1	4.7	26%	1.3%	9%[15.4 µM]	7	17%	-16
OCCNc1nc(Nc2ccccc2)nc(Nc2ccccc2)n1	-1.8	4%	-3.4%	2%	19	-17%	-3
COc1ccc(NC(=S)Nc2ccc3nsnc3c2)cc1	?	56µM*	3.0%	?	26	-13%	19
Cc1cc([N+](=O)[O-])nn1CC(=O)N1CCOCC1	3.6	15%	.	17%[15.4 µM]	-1	-1%	-3
Cc1ccc(NC(=S)Nc2cccc(S(=O)(=O)Nc3c(C)n(C)n(-c4ccccc4)c3=O)c2)cc1	-1.2	-30%	2.0%	-5%[15.4 µM]	12	12%	11
Cc1ccn(C(CC(=O)c2ccc(Br)cc2)C(=O)O)n1 (stereo not given)	2.1	22µM*	0.5%	-5%	10	5%	4
CCC1(C)NC(=O)N(CC(=O)NCC(=O)Nc2c(C)cc(C)cc2C)C1=O (stereo not given)	.	.	-3.1%	-5%	.	?	-1
Cc1ccc(S(=O)(=O)Nc2ccc3c4c(cccc24)CC3)c(C)c1	.	.	0.1%	-7%	16	3%	.
Cc1cccc(OCCC(=O)OCC(=O)N2CCc3ccccc32)c1	2.2	4%	?	4%	5	3%	-3
Cc1ccc(Oc2ncnc3sccc23)cc1	-0.6	-20%	1.5%	6%	12	4%	-8
Cc1c(Br)c(=O)oc2c(Br)c(O)ccc12	-4.7	-2%	-13%	-2%[15.4 µM]	2	3%	-9
C=CCN(c1ccccc1)S(=O)(=O)c1ccc2[nH]cc(C(=O)NCCOC)c(=O)c2c1	2.3	12%	?	28%	.	5%	1
Cc1ccc(OCC(=O)OCC(=O)NC2CCCCCC2)cc1C	.	.	-1.2%	-48%[inhibitor]	-5	.	.
Cc1cc(=O)[nH]c(N/N=C/c2cc(C)n(-c3ccccc3)c2C)n1	-0.3	0%	.	1%[15.4 µM]	-3	19%	0
CCC(=O)Oc1ccc(C(=O)Nc2ccc3c(c2)OCO3)cc1	-0.4	16%	.	2%[15.4 µM]	.	0%	-3
COc1ccccc1NC(=O)CCCN1C(=O)C(c2ccccc2)Oc2cccnc21 (stereo not given)	2.8	4%	-0.1%	2%	.	-5%	-3
CCNC(=O)C(=O)N1CCC2(CC1)OCCN2S(=O)(=O)c1ccc(C)cc1	.	.	3.7%	9%[15.4 µM]	0	4%	-23

Later entries:
SMILES	Menin-MLL FL inh	Sfp PPTase inh	ClpP mod	gsp agonist	CtBP-E1A inh	gsp antagonist	TRPV1 potentiator
COc1cccc(NC(=O)CN(C)C(=O)c2cc(S(=O)(=O)Nc3ccccc3OC)ccc2C)c1	.	.	-0.1%	11%	-9	-4%	.
Cc1ccc(-c2nc(CN3CCN(C(=O)C4CCCO4)CC3)cs2)cc1 (stereo not given)	.	9%	1.4%	-9%	6	-9%	-7
O=C(OCc1cccc(Cl)c1)c1cc([N+](=O)[O-])ccc1N1CCOCC1	.	.	-0.7%	16%	-16	0%	2
CCn1cc(C(=O)Nc2ccc(Cl)cc2Cl)cn1	.	.	.	-28%[15.4 µM]	3	3%	.
CCOC(=O)C1CCN(C(=O)Cn2cnc3sc(C)c(S(=O)(=O)N4CCCCC4)c3c2=O)CC1	-1.3	22%	1.0%	9%[15.4 µM]	-2	-19%	-1
Cc1[nH]n(-c2ccc(Cl)cc2)c(=O)c1C=NC12CN3CN(CN(C3)C1)C2	0.7	15%	-1.4%	30%	3	6%	-4
COc1ccccc1N1C(N)=NC(N)=NC12CCCCC2	0.1	12%	-1.6%	17%[15.4 µM]	10	-5%	4
O=C(Nc1ccc2c(c1)nc1n2CCCCC1)c1cc(S(=O)(=O)N2CCOCC2)ccc1Cl	0.9	19%	-8.8%	-27%	4	-3%	-4
CCN(CC)S(=O)(=O)c1ccc(OC)c(NC(=O)CCc2c(C)noc2C)c1	.	.	-0.3%	?	.	3%	-15
CCOC(=O)c1ccc(NC(=O)c2ccnn2C)cc1	.	.	-4.0%	29%[15.4 µM]	0	5%	.
CC1=C(C(=O)OCc2ccc3c(c2)OCO3)C(c2ccc(Cl)cc2)NC(=O)N1 (stereo not given)	6.3	6%	0.1%	-4%	10	9%	.
CCCNC(=O)c1onc(CSc2ccccc2)c1C(=O)NCCC	.	.	0.9%	?	6	-5%	-5
CC1(C(=O)NC2CCCC2)CCC(=O)N1Cc1ccc2c(c1)OCO2 (stereo not given)	1.0	21%	-0.2%	5%	1	10%	-12
CCOc1ccc(S(=O)(=O)Nc2ccc(C(=O)NCC(c3ccco3)N3CCCCC3)cc2)cc1 (stereo not given)	.	.	.	11%[15.4 µM]	0	-6%	4
O=C(Cn1c(=O)oc2ccccc21)N1CCN(c2ccc(N3CCOCC3)nn2)CC1	1.2	10%	5.2%	17%	2	-3%	1
O=C(CNC(=O)c1ccco1)NNC(=O)c1ccc(Br)cc1	.	.	0.4%	-2%	4	19%	.
Brc1ccccc1OCCOCCOc1cccc2cccnc12	-1.3	14%	-9.7%	16%	2	-5%	13
Cc1cc(Cl)ccc1C(=O)C1CCCN(C(=O)c2ccoc2)C1 (stereo not given)	-1.3	-10%	.	-5%	0	-11%	-4
O=C(NC1c2ccccc2-c2ccccc21)N1CCCCC1	1.6	13%	-2.0%	4%	7	7%	-7
S=c1nccc(-c2ccc(Cl)cc2)[nH]1	3.8	-11%	-2.5%	-3%[15.4 µM]	5	2%	12
CC(=O)N1CCN(Cc2nc3cc(NC(=O)NC4CCCCC4)ccc3n2C)CC1	1.4	12%	1.6%	-3%[15.4 µM]	2	13%	3
C[C@@H]1CN([C@H](C)CO)C(=O)CCCn2nncc2CO[C@H]1CN(C)Cc1ccc(Cl)c(Cl)c1	.	.	0.2%	-53%	0	.	.
COc1ccc(/C=C2/SC(=S)N(CCCC(=O)Nc3cccc(O)c3)C2=O)cc1	8.6	0%	.	9%	?	?	7
COc1ccc2oc(C(=O)OCc3nnc(-c4ccccc4)o3)c(C)c2c1	.	.	25µM*	-56%[inhibitor]	-20	2%	-5
CC(C)Sc1nc2ccccc2n1CC(=O)O	-1.8	-4%	.	15%[15.4 µM]	7	6%	24

Four entries from above, bar-delimited:
SMILES | Menin-MLL FL inh | Sfp PPTase inh | ClpP mod | gsp agonist | CtBP-E1A inh | gsp antagonist | TRPV1 potentiator
CCn1cc(C(=O)Nc2ccc(Cl)cc2Cl)cn1 | . | . | . | -28%[15.4 µM] | 3 | 3% | .
Cc1ccc(-c2nc(CN3CCN(C(=O)C4CCCO4)CC3)cs2)cc1 (stereo not given) | . | 9% | 1.4% | -9% | 6 | -9% | -7
COc1ccccc1N1C(N)=NC(N)=NC12CCCCC2 | 0.1 | 12% | -1.6% | 17%[15.4 µM] | 10 | -5% | 4
S=c1nccc(-c2ccc(Cl)cc2)[nH]1 | 3.8 | -11% | -2.5% | -3%[15.4 µM] | 5 | 2% | 12

More compounds follow.
SMILES	Menin-MLL FL inh	Sfp PPTase inh	ClpP mod	gsp agonist	CtBP-E1A inh	gsp antagonist	TRPV1 potentiator
c1ccc(CNc2ncnc3c2cnn3-c2ccccc2)cc1	-0.1	13%	?	-6%	-8	11%	5
C=C(C)COc1ccc2c(C)c(C)c(=O)oc2c1OCC(=C)C	0.6	20%	?	-35%[inhibitor]	22	-12%	-10
Cc1ccnc(NC(=O)CCC(=O)N(CC(=O)NC2CCCCC2)C2CCCC2)c1	-4.6	10%	1.9%	?	2	4%	-2
Nc1nc(CSc2nc3ccccc3s2)nc(N2CCCCC2)n1	3.6	4%	0.7%	21%	0	2%	-3
CCOc1ccc(N2C(=O)CC(NCCNc3ccc([N+](=O)[O-])cn3)C2=O)cc1 (stereo not given)	-2.9	7%	.	-25%	0	-8%	4
Cc1ccc2[nH]c(CNC(=O)c3ccc(F)cc3)cc2c1	2.2	6%	-5.4%	-6%[15.4 µM]	3	7%	-10
CC1(C)C2(C#N)C(=O)NC(=O)C12C#N (stereo not given)	.	.	.	-85%[inhibitor]	5	8%	.
Cc1cc(C)n2nc(S(=O)(=O)NC(C)(C)C)nc2n1	-1.6	-7%	.	0%[15.4 µM]	0	5%	23

Rows are unselected; any-hit rate near 5.3%.
